D2 agonist: activates the human D2 dopamine receptor. P14416. DiscoveRx PathHunter D2 beta-arrestin, luminescence, 90 min; 100% = 57 uM dopamine signal. activation, % (test concentration not listed). actives 0.084% (n = 360,000); in the data active = activation above about 40%; inconclusive = about 15% to 40%; inactive = below about 15%; also: compound concentration not given in the record; the text of the record calls up to 30% inactive
Target sequence (P14416 whole entry, looked up): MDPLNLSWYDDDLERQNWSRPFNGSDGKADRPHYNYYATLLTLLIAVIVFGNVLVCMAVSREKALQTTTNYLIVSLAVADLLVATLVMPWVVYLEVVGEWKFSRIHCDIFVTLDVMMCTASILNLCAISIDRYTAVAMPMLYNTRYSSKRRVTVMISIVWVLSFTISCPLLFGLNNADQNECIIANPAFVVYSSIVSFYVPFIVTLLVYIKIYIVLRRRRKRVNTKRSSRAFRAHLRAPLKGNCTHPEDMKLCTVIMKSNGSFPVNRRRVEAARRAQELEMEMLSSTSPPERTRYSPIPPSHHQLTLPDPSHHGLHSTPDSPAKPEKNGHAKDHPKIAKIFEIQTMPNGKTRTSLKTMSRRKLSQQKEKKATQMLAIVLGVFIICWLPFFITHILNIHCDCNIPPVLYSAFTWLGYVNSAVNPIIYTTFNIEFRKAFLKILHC
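Agonist mode: compounds alone added to overnight-plated D2 PathHunter cells for 90 min at 37 C, with 57 uM final dopamine (EC100) defining full response. Beta-arrestin recruitment detected by chemiluminescent reagent, read after 1 h at ambient temperature.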
TRPML1 inh: human mucolipin-1 channel inhibition | TRPML1-inducible cells, Ca2+ dye fluorescence, FDSS; stronger effect = lower value; inhibition of EC80 agonist-evoked calcium signal | activity change, negative = inhibition, % (concentration not given with the values) | actives 0.02% (n = 390,000); in the data active means activity change below about -50%; inconclusive means about -30% to -50%; inactive means above about -30%;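 also: stimulus is agonist 54-4 at its EC80 concentration; % is scaled to controls: 0 for no effect and ±100 for the full control effect; compound concentration not given in the record; the text of the record puts the active cut at -80%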
Target sequence (Q9GZU1 whole entry, looked up): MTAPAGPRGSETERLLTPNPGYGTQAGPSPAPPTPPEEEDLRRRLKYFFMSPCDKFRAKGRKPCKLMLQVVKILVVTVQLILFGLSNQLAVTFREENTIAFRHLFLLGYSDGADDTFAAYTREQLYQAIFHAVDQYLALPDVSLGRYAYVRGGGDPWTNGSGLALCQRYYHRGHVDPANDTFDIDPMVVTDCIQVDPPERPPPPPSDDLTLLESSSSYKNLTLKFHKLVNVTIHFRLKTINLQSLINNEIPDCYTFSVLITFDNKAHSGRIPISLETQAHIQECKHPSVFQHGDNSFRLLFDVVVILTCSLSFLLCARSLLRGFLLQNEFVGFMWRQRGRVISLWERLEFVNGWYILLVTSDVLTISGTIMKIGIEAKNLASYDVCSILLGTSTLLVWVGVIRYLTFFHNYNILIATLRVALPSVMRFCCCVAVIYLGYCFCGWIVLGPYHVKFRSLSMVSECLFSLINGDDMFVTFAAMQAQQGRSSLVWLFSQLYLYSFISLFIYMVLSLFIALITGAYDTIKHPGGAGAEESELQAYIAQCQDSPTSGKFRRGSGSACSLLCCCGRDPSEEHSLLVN
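Tet-induced TRPML1-DL cells loaded with Ca8 no-wash calcium dye were read kinetically on FDSS. Compound addition was followed by EC80 agonist 54-4 (4 uM final); inhibition was read over 110 s.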
PINK1 expr mod: changes PINK1 expression; AID 624263; Potency, µM (top dose mostly 76.6 µM), for inactives: top-dose activation (PINK1 increase), most hits filed as activators; PINK1 immunofluorescence, high-content cytometry, 24 h; actives 0.2% (n = 410,000); active = well fitted activation curve with a large enough effect; inconclusive = small, poorly fitted or top-dose-only effect; inactive = flat fitted curve, though single readings scatter; cell line not stated here;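 also: potency is read from the fitted curve at half-maximal effect; % of control where 0% means no effect; nearly all actives have a fitted effect of over 65% in size; a mitochondrial uncoupler was the plate control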
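PINK1 protein, normally rapidly degraded, was detected by immunofluorescence after 24 hour compound treatment of a stable cell line. Titration data (5 concentrations) came from laser-scanning cytometry, with CCCP-treated wells as controls.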
D2 potentiator: potentiates the human D2 dopamine receptor allosterically; P14416; DiscoveRx D2 beta-arrestin cells, luminescence, 90 min; 100% = 57 uM dopamine signal; potentiation, % (no concentration beside the values); actives 0.23% (n = 360,000); AID 624464; active = potentiation of 50% or more; inconclusive = 30% to 50%; inactive = 30% or less;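 also: compound concentration not given in the record; tested on top of an EC20 dose of dopamine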
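PathHunter D2 cells, attached overnight at 37 deg C, received compound in DMSO plus dopamine at EC20 (50 nM final) for 90 min at 37 deg C. Beta-arrestin recruitment was read as luminescence after 1 h with detection reagent at ambient temperature.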
TRPML1 ag: activates the human TRPML1 channel | TRPML1-expressing cells, Ca2+ dye fluorescence, FDSS; host cell line not named in the record; reference of the full effect not given here | activation, % (no concentration beside the values) | actives 0.12% (n = 410,000) | AID 624414; in the data active = activation above about 50%; inconclusive = about 30% to 50%; inactive = below about 30%; also: 0% is about no effect; the text of the record puts the active cut at 80%
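Cells: TRPML1-DL, 1X Tet inducer, ~16 h at 37 degrees C/5% CO2. Dye: ABD Ca8 no-wash + quencher, 45-90 min RT. Read: 10 s baseline, compound add, 110 s agonist phase; 54-4 EC80 (4uM final), 110 s antagonist phase.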
Six1-Eya2 blk: inhibitors of human Six1/Eya2 interaction. actives 0.56% (n = 360,000). AlphaScreen GST-Six1/His-Eya2 binding, biochemical; stronger effect = lower value; control for the full effect not named in the record. activity change, % (concentration not given with the values). AID 651725. Q15475+O00167; in the data active = activity change below about -65%; inconclusive = about -30% to -65%; inactive = above about -30%; also: % is scaled to controls: 0 for no effect and ±100 for the full control effect
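GST-Six1 + His-Eya2 (5X stock: 250/500 nM); Tris pH 8.0, 300 mM NaCl, 0.05% BSA, 0.02% Tween 20; GSH donor/Ni acceptor beads; 1 h 37 °C dark; AlphaScreen readout.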
* hit, by the source's call; u = inconclusive; x = not tested or not shown; & = joins results of further samples; [ ] = remark or other dose.

Molecule | D2 agonist | TRPML1 inh | PINK1 expr mod | D2 potentiator | TRPML1 ag | Six1-Eya2 blk
Cn1nc(NC(=O)C2CCC2C(=O)O)c2c(F)cccc21 (stereo unspecified) | -2.6 | 2 | 2.0% | -13 | -0.1 | 1
CCCCN(C(=O)CCSc1ccc(F)cc1)c1c(N)n(Cc2ccccc2)c(=O)[nH]c1=O | u | 0 | 14% | 24 | 1.1 | 1
Nc1nc2nc(-c3ccccc3)cc(=O)n2[nH]1 | -3.8 | 1&7 | 0.7%&1.6% | 6 | -0.7&1.8 | 1
CCSc1nnc(NC(=O)CSc2nnc(Cc3cccn3C)n2CCc2ccccc2)s1 | -3.6 | 25 | -5.4%[38.3 µM] | -5 | 1.8 | -22
Cn1c(NC(=O)c2ccccc2NC(=O)C(C)(C)C)nc2ccccc21 | 4.6 | 20 | 1.3% | 3 | 1.2 | -6
COc1ccc(S(=O)(=O)Nc2ccccc2N2CCOCC2)cc1[N+](=O)[O-] | 2.4 | 4 | 0.1% | 0 | 0.3 | 5
CCCC(=O)Nc1ccc(NC(=O)c2ccccc2OC)cn1 | 1.7 | -2 | 0.4% | -9 | 1.5 | -1
CCOC(=O)c1sc2nc(C)cc(C)c2c1N | 0.5 | -13 | -0.4% | -6 | 0.4 | 6
CN(C)CCCOC(=O)COc1ccc(C(C)(C)C)cc1 | -0.5 | -17 | -0.7% | -5 | 0.8 | 12
Cc1cccc(-c2nsc(SCC(=O)c3ccc(Cl)cc3)n2)c1 | 4.5 | 4 | -0.9% | -5 | 1.0 | 26
OC1CCN(C(=S)Nc2ccc(Oc3ccccc3)cc2)CC1 | 6.3 | -1 | 2.2% | -10 | 0.0 | 8
Cc1ccc(C)n1-c1ccc(C(=O)Nc2ccccc2F)cc1 | 2.0 | 24 | 3.1% | -1 | 0.2 | -3
Cc1cc(C(=O)NNC(=O)c2sccc2C)c(C)o1 | -5.7 | 49 | -0.6% | -31 | 1.1 | 0
CCN(CC)/C(Sc1ccccc1)=C(\C(Cl)=C(Cl)Cl)[N+](=O)[O-] | 2.9 | 17 | -0.3% | -3 | 0.5 | 7
COC(=O)NC(C)N1C(=O)C2C3C=CC(C3)C2C1=O (stereo unspecified) | 2.1 | -5 | -1.5% | -3 | -0.3 | 5
CCS(=O)(=O)c1nc(S(=O)(=O)c2ccc(C)cc2)c(NC(C)c2ccccc2)s1 (stereo unspecified) | x | 7 | -0.4% | x | 1.1 | x
Cc1cc(C)cc(NC(=O)NCc2nnc(SCc3ccccc3)n2C)c1 | -2.8 | 20 | -2.2% | -4 | 1.5 | -3
O=C(CCC1N=C2c3ccccc3N=C(SCc3cccc(F)c3)N2C1=O)NCc1ccc(F)cc1 (stereo unspecified) | x | 7 | -0.3% | x | -0.9 | x
CCN(CC)c1cccc(OC2=NS(=O)(=O)c3ccccc32)c1 | 0.3 | -3 | 2.0% | -8 | -0.5 | -6
O=C(CNS(=O)(=O)c1ccc(Br)cc1)Nc1ccc2c(c1)OCCO2 | 1.1 | 20 | -0.6% | -1 | -0.2 | 7
CCc1ccccc1N1CC(c2nc3ccccc3n2CCCOc2ccc(Cl)cc2)CC1=O (stereo unspecified) | x | -24 | -1.2% | x | -0.4 | x
CCSc1nnc(-c2cccnc2)n1Cc1ccco1 | -2.0 | -5 | -2.4%[38.3 µM] | 5 | 3.2 | -1
CC(C)OCCCNC(=O)c1cc2c(s1)CS(=O)(=O)C2 | -0.1 | -6 | x | -15 | 0.2 | 3
CS(=O)(=O)Nc1ccc(N2CCN(c3ccc(C(F)(F)F)cn3)CC2)nc1 | 1.9 | 3 | 0.6% | -4 | -0.4 | 0
COc1ccc(NC(=O)C2CCCN(S(=O)(=O)c3ccc4c(c3)CCCN4C(C)=O)C2)cc1Cl (stereo unspecified) | 0.0 | 1 | -0.7% | -14 | -0.5 | -25
Nc1[nH]c(C(=O)c2ccccc2)c(-c2ccc(Cl)cc2)c1C(=O)NCCc1c[nH]c2ccccc12 | x | x | 8.6% | x | -0.8 | 0
CCOC(=O)N1CCN(C(=O)c2cc(-c3ccc(F)cc3)[nH]c2C)CC1 | 11 | 39 | -2.2% | 11 | 2.7 | -2
CC(C)CC(=O)NNC(=S)NCc1ccco1 | -3.3 | 7 | -1.1% | -17 | 0.3 | 12
O=C(Nc1cccc(NC(=O)c2ccc(Br)cc2)c1)c1ccccc1 | 0.6 | 10&16 | 8.0%&0.7% | -10 | -1.4&-0.2 | 3
COc1ccccc1Nc1nn2c(=O)c3ccc(C(=O)NC4CCCCC4)cc3nc2s1 | x | 1 | -2.4% | x | 2.0 | x

Brought forward from above: 6 compounds, then new ones.
Molecule | D2 agonist | TRPML1 inh | PINK1 expr mod | D2 potentiator | TRPML1 ag | Six1-Eya2 blk
COc1ccc(NC(=O)C2CCCN(S(=O)(=O)c3ccc4c(c3)CCCN4C(C)=O)C2)cc1Cl (stereo unspecified) | 0.0 | 1 | -0.7% | -14 | -0.5 | -25
Nc1[nH]c(C(=O)c2ccccc2)c(-c2ccc(Cl)cc2)c1C(=O)NCCc1c[nH]c2ccccc12 | x | x | 8.6% | x | -0.8 | 0
CCOC(=O)N1CCN(C(=O)c2cc(-c3ccc(F)cc3)[nH]c2C)CC1 | 11 | 39 | -2.2% | 11 | 2.7 | -2
CC(C)CC(=O)NNC(=S)NCc1ccco1 | -3.3 | 7 | -1.1% | -17 | 0.3 | 12
O=C(Nc1cccc(NC(=O)c2ccc(Br)cc2)c1)c1ccccc1 | 0.6 | 10&16 | 8.0%&0.7% | -10 | -1.4&-0.2 | 3
COc1ccccc1Nc1nn2c(=O)c3ccc(C(=O)NC4CCCCC4)cc3nc2s1 | x | 1 | -2.4% | x | 2.0 | x
CCc1ccccc1NC(=O)NCc1cccnc1 | -7.1 | -4 | -0.1% | 2 | -0.3 | 4
O=C(Cn1cnc2c(nnn2Cc2ccc(F)cc2)c1=O)N1CCCCC1 | -0.8 | -4 | 0.4% | -24 | -0.6 | 3
CN(C)c1cccc(C(=O)N2CCCC(C(=O)c3cc(F)ccc3F)C2)c1 (stereo unspecified) | -1.9 | -6 | 0.6% | -1 | 0.1 | -15
C/C(CCCO)=N/Nc1ccc([N+](=O)[O-])cc1[N+](=O)[O-] | -2.4 | 12 | 3.1% | -1 | 0.6 | -8
CN(CCO)c1c2c(nc3cc(-c4cccc(F)c4)nn13)CCCC2 | -0.6 | 1 | -1.8% | 5 | -1.2 | -3
CCOC(=O)N1CCN(C(=O)c2cn(-c3ccc(C)c(C)c3)c(=O)c3ccccc23)CC1 | 1.6 | -5 | -0.8% | 13 | -0.7 | 6
O=C(NCC1CCCCC1)c1ccc(Br)o1 | 0.1 | 25 | 1.2% | 2 | -0.8 | 6
Cc1noc(C)c1CSCc1ccc(Cl)cc1 | -0.1 | -13 | 1.6% | -2 | 1.9 | -19
CC1CCN(c2ccc3c(c2)S(=O)(=O)c2cccc(C(=O)NC4CC4)c2C3=O)CC1 | 0.2 | -8 | 16% | -1 | 8.9 | 7
Cc1nc(C)c(C(=O)NCc2ccccc2Cl)o1 | 0.9 | 10 | 2.9%[38.3 µM] | 2 | 1.1 | 1
CCCc1nn2c(N)c(/C=C3\C=Nc4ccccc43)c(=O)nc2s1 | -4.5&-4.0 | 4&41 | 1.6%&0.0% | 2&-2 | -0.7&-1.2 | u
COC(=O)c1ccccc1NC(=O)C1CCCCC1C(=O)O (stereo unspecified) | -1.3 | 30 | 3.5%[38.3 µM] | -2 | 2.3 | 5
COc1ccc(OCc2cc(C(=O)NCC3CCCCO3)no2)c(Cl)c1 (stereo unspecified) | -2.8 | 18 | -0.9% | -10 | 1.1 | 4
O=C(Nc1ccccc1C(=O)N1CCOCC1)C1CCCO1 (stereo unspecified) | -1.0 | 1 | u | -6 | 0.4 | 3
CC(C)OCCCNC(=O)C(NC(=O)c1ccc(Cl)cc1)C(C)C (stereo unspecified) | 3.9 | -6 | 1.2% | -2 | -0.7 | 5
O=c1cc(NCc2ccccc2)c2ccccc2o1 | 0.4 | -3 | -1.3% | -10 | -0.4 | 0
CC(C)c1ccc(NC(=O)c2ccc3c(c2)CCCN3S(C)(=O)=O)cc1 | x | -3 | 7.2% | x | -0.2 | x
Cc1ccc2[nH]c3c(=O)n(CC(=O)N4CCCCC4)ncc3c2c1 | x | 18 | 1.4% | x | 2.0 | x
COc1ccc(CCC(C)NCc2cccc(Br)c2)cc1 (stereo unspecified) | -3.8 | 43 | u | -64 | -0.6 | -2
Cc1c(C(=O)OC(C)C)sc(NC(=O)C2c3ccccc3Oc3ccccc32)c1C(=O)OC(C)C | x | -4 | 1.3% | x | 1.2 | x
CC(=O)Nc1ccc(NC(=O)C(C)Sc2nnc(-c3ccc4c(c3)OCO4)o2)cc1 (stereo unspecified) | 2.5 | -2 | 0.6% | -4 | 0.1 | -2
Cc1csc(SCC(=O)Nc2sccc2C#N)n1 | -2.5 | 5 | 2.7% | 5 | 0.8 | -8
CC(C)CC(c1nnnn1Cc1ccccc1)N1CCN(C(=O)c2ccco2)CC1 (stereo unspecified) | -4.2 | -16 | 0.3% | -3 | 0.4 | -10
CC(NC(=O)CN1C(=O)c2cccnc2Oc2ccc(Cl)cc21)c1ccccc1 (stereo unspecified) | x | 25 | -0.9% | x | 1.8 | x
Cc1ccc(-c2nn(CC(=O)NCCN3CCOCC3)c(=O)c3ccccc23)cc1 | -1.0 | 9 | 0.8% | 0 | -1.0 | 11
CCOc1ccccc1NC(=O)Cn1c(=O)n(Cc2ccco2)c(=O)c2ccc(C(=O)NC3CCCC3)cc21 | x | -5 | -4.2% | x | 2.4 | x
CCC(C(=O)N1CCN(c2ccccc2)CC1)n1nc(C)n2c(cc3sccc32)c1=O (stereo unspecified) | x | 51 | 0.9% | x | -0.3 | x
CCOc1ccc(CCNC(=O)CCCn2c(=O)c3cccn3c3cccnc32)cc1OCC | -1.7 | -1&-8 | 15%&1.2% | -2 | 1.1&-1.1 | 20
COc1cc(CCC(=O)OCC(=O)Nc2cccc(S(=O)(=O)N(C)C)c2)cc(OC)c1OC | 1.4 | 14 | -2.5% | -19 | 0.5 | 2
CCCCN(C)c1c(C)nc2ccc(C(=O)NCc3cccs3)cn12 | 13 | x | 1.7% | -4 | -1.3 | -3
Cc1nc(C(=O)NC2CCOCC2)sc1C1(C)CC(c2ccccc2)=NO1 (stereo unspecified) | -0.3 | -4 | 0.1% | -10 | 3.5 | -3
COc1ccc(/C=N/NC(=O)c2ccc(NC(C)=O)cc2)cc1COc1ccc(F)cc1F | u | 23 | 4.7% | 1 | 3.3 | -4
Cc1cccc(NC(=O)c2ccccc2NC(=O)c2ccccc2)n1 | -1.5 | -8 | 0.4% | -3 | 3.0 | 1
